Screening results from PubChem BioAssay.
GIV Gai3 FP: inhibitors of GIV GBA-motif binding to rat Galpha-i3; P08753; Galpha-i3/FITC-GIV peptide fluorescence polarization, 90 min; active compounds read low; scaled: aluminum fluoride 0%, vehicle 100%; percent of control (FP), % (test concentration not listed); hit rate 0.42% among 210,000;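 active = replicate mean at 85% of control or lower, very high polarization wells dropped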;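 note: lower values mean more displacement of the GIV peptide from Galpha-i3; wells of about 15 µL received 100 nL stock; the first replicate is given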
Target sequence (P08753 whole entry, looked up): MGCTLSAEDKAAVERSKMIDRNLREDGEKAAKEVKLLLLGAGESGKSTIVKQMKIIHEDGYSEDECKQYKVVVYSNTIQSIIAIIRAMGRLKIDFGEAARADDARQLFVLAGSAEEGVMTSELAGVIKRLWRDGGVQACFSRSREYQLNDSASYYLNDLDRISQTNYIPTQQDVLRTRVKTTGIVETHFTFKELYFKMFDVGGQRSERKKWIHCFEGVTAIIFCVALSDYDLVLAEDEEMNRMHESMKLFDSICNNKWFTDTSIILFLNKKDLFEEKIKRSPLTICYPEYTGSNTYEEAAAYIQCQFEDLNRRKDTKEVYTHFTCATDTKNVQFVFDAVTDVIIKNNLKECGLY
Sa growth inh: S. aureus growth inhibition; S. aureus RN4220 growth, OD600, 20 h, 42 °C; active compounds read low; relative growth, % (test concentration not listed); hit rate 0.53% among 170,000;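 active = growth at 42 °C up to 50% and 20 or more points under that at 30 °C, or under 10% at both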;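 note: 300 nL library stock went into each well; scaled to the means of positive and negative controls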
HCMV NEC inh: disrupts HCMV UL50-UL53 complex binding | inhibition, % (test concentration not listed) | hit rate 0.15% among 190,000 | AID 1918969 | HTRF UL50-UL53 interaction, normalized percent inhibition;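 active = both replicates at 50% or more, plus weaker picks with an unusually low signal ratio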;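 note: stock transfer was 100 nL into about 20 µL; 0% = negative control wells and 100% = wells with untagged competitor protein; inactives centre near -12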
Sa growth inh second temp: recorded beside Sa growth inh, whose call it bears; relative growth, %; measured here: growth at 30 °C;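 optical density after 20 h as mean of two plates; 100% = untreated growth and lower means inhibition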
Active calls of the source: *; nt = not tested or not shown; & = joins results of further samples.

Short keys: A = GIV Gai3 FP; B = Sa growth inh; C = Sa growth inh second temp; D = HCMV NEC inh
> Cc1c(C(=O)N(Cc2ccc(N(C)C)cc2)Cc2ccco2)oc2cc(Br)ccc12
  A: 104.3	B: 111.7	C: 95.4	D: -6.6
> CCC(=O)NC1CC(=O)N(c2ccc3c(c2)OCCO3)C1 (stereo not given)
  A: 97.7&97.0	B: 120.8	C: 91.6	D: nt
> COc1ccc(N2CCN(CC(=O)c3ccc(OC)c(OC)c3)CC2)cc1
  A: 100.3	B: 108.2	C: 93.7	D: -8.8
> O=C(CN1C(=O)COc2ccc(Cl)cc21)Nc1ccc(CCc2nc3ccccc3[nH]2)cc1
  A: 102.2	B: nt	C: nt	D: -26.3
> Cc1ccc(-c2nc3scc(CCNC(=O)Cc4ccccc4)n3n2)cc1
  A: 100.0	B: 91.0	C: 89.2	D: -18.6
> O=C(NC1CC1)c1cc(-c2ccccc2)nc2ccccc12
  A: 107.3	B: 89.8	C: 81.1	D: -4.9
> O=S(=O)(c1ccc(NCc2nc3ccccc3[nH]2)nc1)N1CCCC1
  A: nt	B: 92.6	C: 92.8	D: -5.0
> O=C(Cc1ccccc1)Nc1sc2c(c1C(=O)Nc1cccc(Cl)c1)CCCCC2
  A: 102.4	B: 100.4	C: 91.2	D: -8.5
> C(=N\c1n[nH]c(/N=C/c2ccccc2)n1)/c1ccccc1
  A: nt	B: 108.5	C: 91.6	D: -3.8
> O=C(Cn1c(=O)c2cc(Cl)ccc2n2nncc12)Nc1ccccc1
  A: 103.3&102.4	B: 97.3	C: 84.6	D: -13.9&-14.7
> CCCc1c(C(=O)OCC)[nH]c2c1C(=O)CC(c1ccccc1)C2 (stereo not given)
  A: 101.5	B: 97.6	C: 86.7	D: nt
> O=C(NCc1cccs1)c1cc(NS(=O)(=O)c2ccc(F)cc2)ccn1
  A: 102.0	B: 96.6	C: 84.0	D: -29.2
> CC(C)(C)OC(=O)N1CCC(c2c(C(=O)NC3CCCCC3)cnn2-c2cccc(Cl)c2)CC1
  A: 102.2	B: 80.1	C: 87.6	D: nt
> CCCCNC(=O)CCCN1C(=O)c2ccccc2Sc2ncccc21
  A: 104.0	B: 94.4	C: 105.5	D: nt
> CCc1cccc(NC(=O)c2cc3cc4ccc(OC)cc4nc3o2)c1
  A: 112.9	B: 79.6	C: 92.8	D: nt
> CCOc1ccc(CNc2cc(C)nc3nc(-c4cccc(C)c4)nn23)cc1OC
  A: 97.3	B: 84.8	C: 84.9	D: nt
> CCn1c(SCc2cc(=O)n3cc(C)ccc3n2)nc2ccccc21
  A: nt	B: 89.7	C: 97.2	D: -10.6
> Cc1cc(C)cc(CC2CC(=O)N(CC(=O)O)C2=O)c1 (stereo not given)
  A: 100.7	B: 94.5	C: 87.5	D: nt
> CCCCOc1ccc(C(=O)N=c2sccn2C)cc1OC
  A: nt	B: 108.1	C: 77.5	D: -38.1
> CCN(CC(=O)NCc1ccc(F)cc1)C(=O)c1cc(S(=O)(=O)N2CCOCC2)ccc1Cl
  A: nt	B: 95.7	C: 86.3	D: -8.5
> O=C(O)C1CCCN1C(=O)c1cccnc1 (stereo not given)
  A: nt	B: 94.7	C: 90.8	D: 3.4
> O=C(CSc1nc2c(sc3ncccc32)c(=O)n1Cc1ccccc1)Nc1ccc(F)c(F)c1
  A: 102.1	B: nt	C: nt	D: 67.7*
> Cc1ccc(NC(=O)Cc2csc(C)n2)c(C)c1
  A: 97.9&108.1	B: 95.1	C: 90.5	D: -10.6&-12.3
> CCC(CC)C(=O)Nc1cccc(C(=O)N2CCCC2)c1
  A: 110.5	B: 98.3	C: 98.2	D: -6.6
> Cn1c(=O)c(C(=O)N2CCN(c3ccccn3)CC2)nn(-c2ccccc2)c1=O
  A: 99.1	B: nt	C: nt	D: -1.7
> N#CCSc1ccccc1NC(=O)CN1C(=O)C2CC=CCC2C1=O (stereo not given)
  A: nt	B: 97.0	C: 95.1	D: -2.9
> C#CCOc1c(Cl)cc(CNCC2CN(CC(C)C)CCO2)cc1OC (stereo not given)
  A: nt	B: 93.6	C: 89.7	D: 2.7
> CN(C)C(=O)Oc1nnc(SCC(=O)c2ccc3c(c2)OCCO3)n1C1Cc2ccccc2C1
  A: 102.6	B: 96.4	C: 89.2	D: -14.7
> O=C(c1c(-c2ccccc2)nc2n1CCS2(=O)=O)N1CCOCC1
  A: 105.3	B: nt	C: nt	D: 8.3
> O=c1c(-c2ccc(Br)cc2)coc2cc(O)cc(O)c12
  A: 104.9	B: 86.4	C: 82.1	D: -18.9
> N#CCN(CC#N)C(=O)c1cc(Cl)ccc1Cl
  A: nt	B: 120.7	C: 88.0	D: 14.9
> CCCn1c(=O)c2ccc(C(=O)NC(C)C)cc2n2c(SCC(=O)c3ccc(F)cc3)nnc12
  A: 107.6	B: nt	C: nt	D: -25.8
> CCOC(=O)c1c(-c2c(Cl)cccc2Cl)noc1C
  A: 104.1	B: 0.5*	C: 0.7*	D: -5.2
> O=C(Cn1nc(Cc2ccncc2)c2ccccc2c1=O)N1CCC(Cc2ccccc2)CC1
  A: 101.7	B: nt	C: nt	D: -19.4
> C#CCSc1ncc(-c2ccc(Cl)cc2)n1C
  A: 106.5	B: 88.0	C: 88.7	D: -5.2
> OCCN1CN=C(SCc2ccc(Cl)c(Cl)c2)NC1
  A: 101.0	B: 97.9	C: 91.2	D: -26.3
> NC(C(=O)O)c1ccccc1F (stereo not given)
  A: 101.8	B: nt	C: nt	D: -20.9
> O=C(O)c1cc2c(cc1NC(=O)C1CCCC1)OCCCO2
  A: nt	B: 201.7	C: 100.0	D: -7.6
> N#CC1=C(N)OC2=C(C(=O)CCC2)C12C(=O)Nc1ccc(F)cc12 (stereo not given)
  A: 102.4	B: 97.8	C: 83.7	D: -14.1
> Cc1cc(C(C)(C)C)cc(C)c1C(=O)O
  A: 102.9	B: 105.9	C: 82.0	D: 0.5
> Cc1cnn(C(=S)NCc2ccc(Cl)cc2)c1
  A: 114.4	B: 96.4	C: 99.0	D: 7.0
> C=CCn1c(=O)n(CC=C)c(=O)n(Cc2ccc(C#N)cc2)c1=O
  A: nt	B: 107.4	C: 86.2	D: 1.7
> CC(Nc1ccccc1)C(=O)N1CCc2ccccc21 (stereo not given)
  A: nt	B: 110.2	C: 105.3	D: -11.2
> Cc1ccc(C(=O)NCc2ccc(-c3nc4ncccc4o3)cc2)cc1
  A: 102.7	B: 103.0	C: 98.6	D: -30.2
> NC(=O)C(Cc1ccccc1)NC(=O)c1ccccc1SCc1ccc(F)cc1 (stereo not given)
  A: 103.1	B: 123.4	C: 92.6	D: -0.5
> Cn1nc(C(F)(F)F)cc1Cl
  A: nt	B: 96.6	C: 84.5	D: -2.5
> CCOc1ccc(S(=O)(=O)Nc2c(-n3cnnc3)nn(C)c2C)cc1
  A: 101.5	B: nt	C: nt	D: -33.3
> O=C(Cn1c(=O)c2c(ncn2Cc2ccccc2)n(Cc2ccccc2)c1=O)N1CCCC1
  A: nt	B: 87.8	C: 79.3	D: -23.4
> CCc1ccc(CNC(=O)CN2CCN(Cc3ccc(F)cc3Cl)C2=O)cc1
  A: 105.4	B: nt	C: nt	D: -10.3
> N#Cc1cccc(CSc2ccccn2)c1
  A: 103.3	B: 103.5	C: 86.4	D: -10.3

(list continues)
Short keys: A = GIV Gai3 FP; B = Sa growth inh; C = Sa growth inh second temp; D = HCMV NEC inh
> Cc1cc(NC(=O)CC(C)CC(=O)O)no1 (stereo not given)
  A: 101.9	B: 100.0	C: 105.7	D: -0.6
> Cc1ccccc1C(=O)NC1CCN(Cc2nnnn2Cc2ccccc2)CC1
  A: 99.4	B: 81.1	C: 108.8	D: -1.6
> O=C(Nc1ccc2nc3n(c(=O)c2c1)CCCC3)Nc1ccc(F)cc1F
  A: 97.2	B: nt	C: nt	D: -1.3
> CCOc1cc(C)c(S(=O)(=O)N2CCc3cc4ccc(OC)cc4nc32)cc1C
  A: 95.5	B: nt	C: nt	D: 2.4
> O=C(c1cnccn1)N(Cc1ccc(Cl)cc1)Cc1cc2cc3c(cc2[nH]c1=O)OCCO3
  A: 100.5	B: 91.5	C: 94.4	D: 8.9
> CCOC(=O)N1CCc2c(sc3c2c(=O)n(CCc2ccccc2)c(=O)n3Cc2ccc(F)cc2)C1
  A: 108.8	B: 95.2	C: 109.2	D: -5.6
> O=c1oc(-c2ccc(Br)cc2)nc2scc(-c3cccs3)c12
  A: 106.1	B: nt	C: nt	D: -11.1
> CC1CCN(S(=O)(=O)c2ccc3c(c2)c(=O)c(C(=O)N(CC2CC=CCC2)CC2CCCO2)cn3C)CC1 (stereo not given)
  A: 100.5	B: nt	C: nt	D: -31.9
> CN1CCc2c(sc3c2CN(C(=O)Nc2ccc(F)cc2F)C(c2ccc(Cl)cc2)c2cccn2-3)C1 (stereo not given)
  A: 102.1	B: nt	C: nt	D: -5.2
> CC1CC(=O)Nc2ccccc2N1C(=O)c1cccs1 (stereo not given)
  A: 104.1	B: 92.1	C: 84.4	D: -21.9
> O=C(Nc1cccc(Cl)c1)Nc1ccc2nc3n(c(=O)c2c1)CCC3
  A: 107.4&103.0	B: 97.5	C: 107.9	D: 11.4&3.2
> O=C(Cc1ccccc1)NCC(=O)N1CCN(C(=O)c2ccco2)CC1
  A: 104.8	B: 97.5	C: 87.4	D: -7.6
> O=C(Nn1c(=O)[nH]c2ccsc2c1=O)c1ccccc1
  A: 109.4	B: 87.9	C: 59.1	D: nt
> O=C(O)c1ccc(/C=c2/sc3n(c2=O)CCN=3)cc1
  A: 94.7	B: 94.6	C: 94.2	D: 9.1
> Cc1cccc(NS(=O)(=O)c2cc(C(=O)NCc3ccco3)ccc2C)c1
  A: 109.1	B: 106.2	C: 96.5	D: -24.0
> C=CCn1c(=O)c2ccc(C(=O)NCc3ccc4c(c3)OCO4)cc2n(CC(=O)Nc2ccc(CC)cc2)c1=O
  A: 100.0	B: nt	C: nt	D: -27.3
> O=C(CCC1CCCCC1)NC1CCCC1
  A: 103.4	B: 116.0	C: 101.7	D: -13.6
> Cc1cc(C)c2c(n1)sc1c(SCc3ccccc3)nc(C)nc12
  A: 98.7	B: 95.6	C: 93.7	D: nt
> CC(C)C1N=C2c3ccccc3N=C(SCc3cc(=O)n4cc(Br)ccc4n3)N2C1=O (stereo not given)
  A: 99.3	B: 96.8	C: 86.8	D: -11.1
> CC(=O)Nc1ccc(NC(=O)COC(=O)Cc2c[nH]c3ccccc23)cc1
  A: nt	B: 95.4	C: 82.8	D: -19.4
> Cc1cc(Cl)ccc1OCC(=O)NN1C(=O)C2C3C=CC(C3)C2C1=O (stereo not given)
  A: nt	B: 98.2	C: 83.7	D: -15.3
> CC(C)CCSc1nc2ncn(C)c2c(=O)[nH]1
  A: nt	B: 96.5	C: 81.5	D: -11.4
> Cc1noc2ncnc(N3CCCC(C(=O)Nc4ccc(F)cc4F)C3)c12 (stereo not given)
  A: 99.5	B: nt	C: nt	D: 10.3
> O=C(Nc1ccc(SC(F)F)cc1)c1ccc2c(=O)n3c(nc2c1)CCC3
  A: nt	B: 89.0	C: 74.4	D: -34.4
> O=C(CN1C(=O)c2ccccc2S1(=O)=O)Nc1ccc(S(=O)(=O)Nc2ccccc2)cc1
  A: 100.9	B: nt	C: nt	D: -19.7
> Cc1nc(NC(C)C(=O)O)c2nc(C)oc2n1 (stereo not given)
  A: 102.7	B: 95.7	C: 86.0	D: -12.3
> CCOC(=O)c1c(NC(=O)c2cc(-c3ccc(OC)c(OC)c3)on2)sc2c1CCCC2
  A: 102.6	B: 106.3	C: 89.2	D: -3.5
> CC1CCCC(NC(=O)c2cc(S(=O)(=O)N3CCCCC3)c[nH]2)C1C (stereo not given)
  A: 101.8	B: 113.1	C: 82.0	D: nt
> COc1ccccc1NC(=O)c1c(N=Cc2c(O)ccc3ccccc23)cnn1C
  A: 107.7	B: 121.5	C: 96.7	D: nt
> CCCOC(=O)c1[nH]c2c(c1C)C(=O)CCC2
  A: 104.9	B: 103.8	C: 75.9	D: nt
> Cc1ccccc1C(=O)Nc1nnc(S(=O)(=O)N(C)c2ccc(Cl)cc2)s1
  A: 106.8	B: 100.9	C: 102.9	D: 18.7
> CC(C)c1ccc(NC2C=CS(=O)(=O)C2)cc1 (stereo not given)
  A: 103.4	B: 122.3	C: 107.4	D: 4.7
> COc1ccc(C)cc1NC(=O)COc1cc(=O)n(C)c2ccccc12
  A: 100.3	B: 102.3	C: 90.5	D: -28.8
> O=C(CCN(CCc1ccccc1)C(=O)c1ccc(Cl)cc1)N1CCNCC1
  A: 99.5	B: nt	C: nt	D: -3.6
> Cc1ccc(C(=O)N(c2ccc(C)cc2)S(=O)(=O)c2ccc(Cl)cc2)cc1
  A: 100.2	B: 99.5	C: 81.7	D: -34.2
> Cc1ccnn2cc3c(=O)n(C)c(=O)n(C)c3c12
  A: 110.6	B: 89.6	C: 102.5	D: -7.5
> O=C(NCCc1ccc(Cl)cc1)C(=O)NCC(c1cccs1)S(=O)(=O)c1ccccc1 (stereo not given)
  A: 97.4	B: 107.1	C: 90.1	D: nt
> O=C(OCc1cc(=O)n2ccsc2n1)C1(c2ccccc2)CC1
  A: nt	B: 99.5	C: 92.4	D: -34.1

An excerpt from above in order of number of heavy atoms, smallest number first:
Short keys: A = GIV Gai3 FP; B = Sa growth inh; C = Sa growth inh second temp; D = HCMV NEC inh
> CC(C)c1ccc(NC2C=CS(=O)(=O)C2)cc1 (stereo not given)
  A: 103.4	B: 122.3	C: 107.4	D: 4.7
> Cc1ccccc1C(=O)Nc1nnc(S(=O)(=O)N(C)c2ccc(Cl)cc2)s1
  A: 106.8	B: 100.9	C: 102.9	D: 18.7
> CCOC(=O)c1c(NC(=O)c2cc(-c3ccc(OC)c(OC)c3)on2)sc2c1CCCC2
  A: 102.6	B: 106.3	C: 89.2	D: -3.5
